# Bioassay records: PubChem, several laboratories
# Sa ugtP lethal – growth inhibition of ugtP-null S. aureus, primary screen, RN4220 ugtP deletion, OD600. 16 h; some inactives read as strong as hits. AID 1259309, 2017. growth inhibition, % (concentration not given with the values). 330,000 compounds, 0.54% hits;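 active = z-score under -3 and OD600 up to 0.15 on both plates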;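 also: plate controls were untreated wells for no effect and antibiotic for full effect; wells of about 80 µL received 100 nL stock; the first replicate is given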
# Mtb hypoxia inh – PubChem AID 1159583; M. tuberculosis hypoxia-regulated fluorescent reporter, fluorescence; fluorescence inhibition, % (no concentration beside the values); 300,000 compounds, 0.1% hits;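 active = 35 to 45% if threefold the growth effect, above 45% if 1.5-fold the growth effect; inactive = the rest, general growth blockers included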;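 also: wells of about 50 µL received 100 nL stock; 0% = vehicle wells and 100% = reference inhibitor wells; whole bacteria with a GFP reporter of the hypoxia response; strong numbers were not always called active; many hits fall short of the cut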
# BJeLR lethal – MLPCN primary cell-based screen for lethality selective to Ras in HRASV12 cells | BJeLR (HRASV12) viability, CellTiter-Glo ATP luminescence, 48 h; reference of the scale not given here | inhibition, % (concentration not given with the values) | 300,000 compounds, 0.17% hits;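 active = replicate mean above 50%; inconclusive = above 50% but judged a plate artefact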;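 also: 50 nL library stock added to about 25 µL; numbers are from one replicate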
# PrP 5UTR inh – inhibition of PrP 5' UTR reporter expression. inhibition, % (concentration not given with the values). 340,000 compounds, 0.35% hits. cell-based PrP 5' UTR mRNA reporter, plate reader;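 active = every replicate at 50% or more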;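 also: 0 = median of the neutral control wells; tested in H4 reporter cells; numbers are from one replicate; inactives centre near -14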
# Bead autofluor – flagged as autofluorescent in microsphere protease counterscreen | 360,000 compounds, 3.1% hits | compound autofluorescence counterscreen, microsphere flow cytometry; active compounds read high | fluorescence intensity (concentration not given with the values);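 active = at least 3 SD above the mean of all compounds, about 16000 in these data; inconclusive = too few beads counted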;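 also: 100 nL of 1 mM stock went into each well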
# Sa RN4220 lethal – growth inhibition of S. aureus RN4220, primary screen, OD600; 330,000 compounds, 0.33% hits; 16 h; inhibition, % (concentration not given with the values);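 active = z-score of -3 or lower and OD600 up to 0.18 on both plates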;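 also: plate controls were untreated cells for no effect and reference antibiotic for full effect; stock transfer was 100 nL into about 80 µL; one replicate is shown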
# Mtb hypoxia inh growth – second read-out of Mtb hypoxia inh, no call of its own (marks repeat the call); growth inhibition, %; measured here: M. tuberculosis growth (absorbance);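 0% = vehicle and 100% = reference antibiotic; read after six days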
# * hit, by the source's call; ? = inconclusive; . = no result given.
SMILES,Sa ugtP lethal,Mtb hypoxia inh,Mtb hypoxia inh growth,BJeLR lethal,PrP 5UTR inh,Bead autofluor,Sa RN4220 lethal
Cc1ccc(OCCC(=O)OCC(=O)Nc2cc(S(=O)(=O)N(C)C)ccc2C)cc1,13.1,1.2,3.4,5.4,-33.8,4234,4.7
COc1cccc(C(C)=NNc2ncc(Cl)cc2Cl)c1,13.9,3.7,-1.8,.,.,.,9.9
CCCCn1c(N)c(N(CCOC)C(=O)CCc2ccc(OC)cc2)c(=O)[nH]c1=O,-2.7,2.4,7.1,-7.1,-4.9,2011,1.1
COCCN(C(=S)Nc1cccc(C)c1)C(C)c1cccs1 (configuration not stated),8.5,6.2,1.7,-5.2,-10.6,2008,14.3
Cc1cc(C(=O)N/N=C/c2cccn2C)no1,.,.,.,6.9,-22.9,2002,.
CCN(CC)S(=O)(=O)c1ccc(NC(=O)c2cc(-c3ccccc3)nc3ccccc23)cc1,-2.4,3.8,1.2,9.4,-14.2,8717,3.0
Cc1cc(Br)ccc1NC(=O)CNC(=O)CSc1ncccn1,-2.1,-10.0,-1.2,.,0.1,8452,3.3
NC(=O)CC1(CC(=O)O)CCCCC1,2.6,11.1,4.8,-7.7,-33.5,10310,5.7
COCCCNC(=O)Cn1c(=O)n(Cc2ccccc2Cl)c(=O)c2cc(OC)c(OC)cc21,4.8,5.2,11.7,-6.6,-11.2,4183,5.6
CCCN(CC(=O)Nc1ccccc1OC)C(=O)CCC(=O)c1ccc(Cl)s1,1.3,11.5,4.2,.,-25.3,3568,1.7
O=C(NN=Cc1ccc2c(c1)OCO2)/C(=C/c1ccc2c(c1)OCO2)NC(=O)c1ccccc1,2.5,3.0,6.1,.,.,.,-17.6
Cn1c2c(c(=O)n(C)c1=O)C(NC(=O)c1ccco1)(C(F)(F)F)C(=O)N2 (configuration not stated),2.5,.,.,4.8,-17.8,3425,-1.2
O=C(O)c1ccccc1OCc1nc2ccccc2s1,-3.0,-5.6,8.6,-5.2,-74.4,6001,-1.8
CC(C)C(NS(=O)(=O)c1cccs1)C(=O)N(C)Cc1ccccc1 (configuration not stated),-7.5,3.4,-0.8,8.9,-17.8,7161,2.7
Cc1ccccc1-n1c(C)nc2ccccc21,-1.3,12.3,15.6,9.1,-21.7,3844,6.1
O=C(CCC1CCCCC1)NCc1ccccn1,3.7,.,.,-2.7,-11.6,7540,2.9
CCOC(=O)C1CCCN(c2nc(C)nc3c2oc2ccccc23)C1 (configuration not stated),-6.9,3.1,8.7,0.9,-28.0,9407,23.9
COc1ccc(C2=Nn3c(nnc3-c3ccccn3)SC2)cc1OC,-8.0,6.9,5.6,8.9,16.8,22882*,5.3
CN1CCN(S(=O)(=O)c2ccc(C3CCCCC3)cc2)CC1,-0.6,4.7,3.9,.,-6.9,.,0.9
COc1cccc(NC(=O)C2CC(=O)n3cnnc3S2)c1 (configuration not stated),6.4,-0.6,-2.1,.,-1.8,4749,7.2
CCc1ccccc1NC(=O)C1CCCN1C(=O)Nc1ccc(C)cc1 (configuration not stated),3.5,8.8,0.1,-8.4,-23.9,3804,3.8
COc1cc(CN2CCC(C(=O)NC3CCCC3)CC2)cc(OC)c1O,-3.9,6.2,7.2,1.7,-24.7,5802,8.1
O=C(c1cccc(Cl)c1)N1CCN(C2CCCCC2)CC1,5.9,17.1,11.4,-6.1,-9.7,3747,4.5
N#Cc1c(F)cccc1NCCCn1ccnc1,8.0,3.5,-8.8,8.3,-28.0,3221,3.4
O=C(NCc1ccco1)c1cnn2cccnc12,2.7,3.6,9.9,5.4,-18.5,4306,10.3

# The list continues.
SMILES,Sa ugtP lethal,Mtb hypoxia inh,Mtb hypoxia inh growth,BJeLR lethal,PrP 5UTR inh,Bead autofluor,Sa RN4220 lethal
CC(C)CNS(=O)(=O)c1ccc(CCC(=O)Nc2cc(Cl)ccc2Oc2ccccc2)cc1,-9.4,.,.,1.3,-23.8,5187,-0.2
COC(=O)[C@]1(Cc2ccccc2)N[C@H](c2ccc(-c3ccc(Cl)c(Cl)c3)cc2)[C@@H]2C(=O)N(C)C(=O)[C@@H]21,.,.,.,3.1,-1.3,4327,.
Cc1cccc(C(=O)N[C@H](C(=O)Nc2nc3ccccc3[nH]2)C(C)C)c1,-1.7,-4.6,-5.4,-0.8,-15.5,4293,1.5
O=S(=O)(c1ccccc1)c1cnc(-c2ccccc2)nc1N1CCCCC1,2.6,1.1,8.5,3.0,-19.7,4337,3.4
COc1ccc(C(CNC(=O)c2cccc(S(=O)(=O)N3CCc4ccccc43)c2)N(C)C)cc1 (configuration not stated),2.6,8.4,17.7,.,-10.5,2974,-6.4
CSc1ncccc1C(=O)OCC(=O)c1ccc2c(c1)NC(=O)CO2,4.5,-8.1,-1.7,6.7,-5.1,5678,3.3
O=C(CSc1nc2ccccc2c(=O)[nH]1)Nc1ccc(S(=O)(=O)N2CCCC2)cc1,-5.1,9.0,7.8,7.7,-11.8,16902*,9.9
O=S(=O)(N/N=C\c1cccnc1)c1ccccc1,.,.,.,0.0,-9.6,2668,.
O=C(CNc1ccccc1)NN=Cc1cn(-c2ccccc2)nc1-c1ccccc1,-5.7,5.9,-2.6,.,.,.,2.2
O=C(N/N=C/c1ccc(Br)cc1)c1cc[n+](Cc2ccccc2)cc1,.,.,.,-14.8,-6.0,2492,.
COc1c2c(cc3oc(=O)c4c5ccc(O)cc5oc4c13)OC(C)(C)CC2,15.6,.,.,-2.0,-36.6,4127,1.7
COc1ccc(OCC(=O)Nc2nc3cc4c(cc3s2)OCCO4)cc1,2.3,9.9,-1.3,.,-23.9,3794,2.4
CN1CCCN(C(=O)CNC(=O)c2ccccc2Br)CC1,-1.6,0.1,-5.5,.,-6.2,5301,-4.4
CC(=O)c1cccc(N(C(=O)Cn2nnc3ccccc32)C(C(=O)NC2CCCCC2)c2cn(C)nc2C)c1 (configuration not stated),5.1,11.8,5.1,-9.4,-5.5,7321,2.0
Cc1nnc2ccc(N3CCC4(CC3)OCCO4)nn12,3.9,1.5,-3.2,-1.0,-0.3,23146*,4.2
COc1ccc(C(=O)N(C)c2ccccc2C(=O)NCCc2ccccc2)cc1,-2.1,9.1,1.0,3.2,-27.6,6074,1.5
Cc1ccc2c(c1)C1CN(C)CCC1N2C(=O)c1cn(-c2ccccc2)nc1-c1ccccc1 (configuration not stated),7.6,2.0,19.7,10.9,-11.4,4338,0.2
C/C(=C(\C#N)C(=O)NCc1ccccc1)N(C)C,.,.,.,3.0,-23.0,3509,.
Cc1c(C)c2c(OCC(=O)N[C@@H](Cc3ccccc3)C(=O)O)cc3c(c2oc1=O)CCC(C)(C)O3,7.4,.,.,5.7,1.0,4252,3.6
O=[N+]([O-])c1cc(C(F)(F)F)ccc1SCC(O)CO (configuration not stated),5.6,-4.2,-4.9,-12.2,3.4,3544,10.9
Cc1ccc(S(=O)(=O)NCC(c2ccco2)N2CCc3ccccc3C2)cc1 (configuration not stated),-2.4,-7.7,2.0,-8.6,-10.8,6381,3.8
N#CC1(c2ccccc2)CCCN1C(=O)c1ccco1 (configuration not stated),-5.0,.,.,6.2,-12.8,.,-3.4
Cc1ccc(S(=O)(=O)N2CCN(c3c([N+](=O)[O-])cc(C(F)(F)F)cc3[N+](=O)[O-])CC2)cc1,28.1,-8.0,13.1,-1.0,-11.0,1946,-2.3
C[C@H](CO)N1C[C@H](C)[C@@H](CN(C)C(=O)NC2CCCCC2)Oc2ccc(NS(=O)(=O)c3cccs3)cc2C1=O,7.4,0.6,-0.3,.,-6.2,3463,-0.6
Cc1ccccc1/C=N\NC(=O)c1ccc(Cn2cccn2)o1,.,.,.,-11.7,-33.2,2608,.

# Remaining list, next part.
SMILES,Sa ugtP lethal,Mtb hypoxia inh,Mtb hypoxia inh growth,BJeLR lethal,PrP 5UTR inh,Bead autofluor,Sa RN4220 lethal
CC(OC(=O)C1=COCCO1)C(=O)NC1(C#N)CCCCC1 (configuration not stated),3.1,6.6,6.1,.,-24.1,3713,2.0
N=C1C(c2nc3ccccc3[nH]2)=C(O)CN1c1ccccc1,-9.8,.,.,-6.1,-25.4,2585,3.0
COc1ccc(Nc2nc(NC(C)(C)C)nc(N3CCCC3)n2)c(OC)c1,47.5,-23.5,-2.6,-1.5,-11.4,11826,1.4
CC(C)N=C(NS(=O)(=O)c1ccccc1)C(Cl)(Cl)Cl,7.9,4.3,-12.0,16.1,-60.6,2137,7.8
O=C1CC(c2ccccc2)=Nc2ccc(Br)cc2N1,-6.1,2.0,6.3,-5.1,-37.7,4137,6.9
O=c1c2cc3c(=O)n(CC4CCCO4)c(=O)c3cc2c(=O)n1CC1CCCO1 (configuration not stated),9.2,6.6,3.6,5.7,-17.9,11475,3.0
Cc1[nH]c2ccccc2c(=O)c1C(=O)/C=C/c1ccccc1,0.1,13.9,5.7,20.4,15.8,3486,2.9
CC(=O)Nc1ccc(C2=NN(c3ccccc3)C(c3cccs3)C2)cc1 (configuration not stated),3.6,-20.9,-5.2,10.6,-19.0,2740,-2.0
CC(=NNc1ncc(Cl)cc1Cl)c1ccccn1,4.6,.,.,.,.,.,0.9
CC(=O)Nc1ccc(Oc2nc(C)cc(C)n2)cc1,-2.4,.,.,-4.9,-3.7,3607,-0.5
CC(=O)c1cccc(NC(=O)C2COc3ccccc3O2)c1 (configuration not stated),8.5,5.0,0.5,9.6,-26.3,3177,4.7
O=C(CSCc1ccc(F)cc1)N1CCOCC1,7.6,4.4,9.0,-19.0,-13.2,20026*,4.5
Cc1cc(C=NNc2ccc([N+](=O)[O-])cn2)c(C)n1-c1ccccc1,-8.6,2.1,0.0,.,.,.,1.3
Cc1noc(C)c1COC(=O)c1ccc(N(C)C)cc1,2.9,-5.6,-5.9,-12.6,-17.0,4859,4.3
Cc1cc(NC(=O)c2c(Cl)c(C)nn2C)no1,9.3,.,.,-4.7,-10.6,3843,3.4
O=C(CN1CCN(c2ccc(O)cc2)CC1)Nc1ccccc1C(=O)NCCc1ccccc1,-4.6,-0.8,-2.6,.,-9.9,3950,5.1
O=c1oc2ccccc2cc1-c1nnc(NCc2ccco2)s1,-10.2,6.8,6.7,2.7,-74.7,8114,3.0
CCOC(=O)C1=C(OCc2ccc(Cl)cc2)C2C=C(C)C=CC2N=C1 (configuration not stated),-12.8,13.4,6.3,-0.6,-7.9,?,-2.9
COC(=O)c1ccc(NC(=S)NN2CCOCC2)cc1,11.5,9.9,1.1,3.1,-31.9,4254,6.3
CCCCCC(=O)N/N=C(\C)c1ccccn1,.,.,.,9.1,-11.0,10849,.
CCC(C)(C)NC(=O)C(c1ccc(OC)cc1)N(C(=O)CCC(=O)Nc1cc(C)on1)c1ccc(OC)c(OC)c1 (configuration not stated),2.7,6.2,1.5,-9.8,-7.7,6161,2.8
COc1ccc(S(=O)(=O)Nc2ccc(S(=O)(=O)N3CCOCC3)cc2)cc1C,14.6,.,.,0.4,-34.3,2747,-5.8
CCOc1ccc(S(N)(=O)=O)cc1-c1nc2c(C(C)(C)C)nn(C)c2c(=O)[nH]1,9.3,3.9,-3.1,-6.0,-5.6,4318,0.5
COc1ccc(C(=O)N=c2nc3ccccn3s2)cc1,7.8,.,.,22.5,43.6,4363,3.3
COC(=O)CC1SC(=O)NC1=Nc1ccc(O)cc1 (configuration not stated),-7.6,2.4,-1.8,-10.9,-12.7,3208,-14.2
COc1ccc(CNC(=O)Nc2cc(C)ccc2C)cc1,1.4,10.8,5.5,4.8,-27.6,2251,3.5
Cn1c(N)c(C(=O)COC(=O)c2ccc3c(c2)OCCO3)c(=O)n(C)c1=O,-4.5,-0.1,-6.1,-16.7,-1.9,4032,4.1
COC(=O)c1nc2cc3c(cc2c(C)c1C(=O)OC)OCO3,-0.6,-6.5,2.8,0.4,-14.6,10574,0.8
O=C(Nc1ccncc1)C1CCN(S(=O)(=O)c2ccc(Cl)cc2)CC1,-0.1,4.2,8.3,4.5,-8.9,6048,0.6

# Full records, looked up by structure. Values in the order: Sa ugtP lethal	Mtb hypoxia inh	Mtb hypoxia inh growth	BJeLR lethal	PrP 5UTR inh	Bead autofluor	Sa RN4220 lethal
# Record of O=c1c2cc3c(=O)n(CC4CCCO4)c(=O)c3cc2c(=O)n1CC1CCCO1 (configuration not stated) = 9.2	6.6	3.6	5.7	-17.9	11475	3.0
# Record of COC(=O)c1ccc(NC(=S)NN2CCOCC2)cc1 = 11.5	9.9	1.1	3.1	-31.9	4254	6.3
# Record of COc1ccc(C(=O)N=c2nc3ccccn3s2)cc1 = 7.8	.	.	22.5	43.6	4363	3.3
# Record of Cc1cc(C=NNc2ccc([N+](=O)[O-])cn2)c(C)n1-c1ccccc1 = -8.6	2.1	0.0	.	.	.	1.3
